# Compound activity deposited in PubChem by several laboratories.
# A1 inh: caspase 3/7 activation in MEF A1-2A-BIM cells, primary screen, A1 inhibitor project, cell-based, luminescence, HTS | Caspase-Glo 3/7 luminescence, 3 h; percent of clofoctol response, vehicle zero | caspase activation, % (no concentration beside the values) | 0.066% of 330,000 active | AID 2462, 2010;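 active = over half of replicate activation scores above 10%, or exactly half above 10 with the replicate mean above 10; inconclusive = replicate mean below 10 yet half the replicates above 10; inactive = over half of replicates below 10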;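 also: wells of about 30 µL received 50 nL stock; many hits fall short of the cut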
# Calb FLC: C. albicans growth inhibition with fluconazole, primary screen, CaCi-2 strain, Alamar Blue fluorescence; 0.57% of 300,000 active; growth inhibition, % (no concentration beside the values); C. albicans CaCi-2 (fluconazole-resistant clinical isolate) + fluconazole, 48 h;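 active = most replicates above 75%; inconclusive = exactly half above 75%; inactive = most below 75%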;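 also: all wells also contain fluconazole at 8 µg/ml as a sub-toxic cotreatment; 0% = median of DMSO wells and 100% = median of geldanamycin control wells; wells of about 8 µL received 7.5 nL stock; the first replicate is given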
# Beta cell apopt: inhibitors of cytokine-induced beta cell apoptosis, primary screen, luminescence; INS-1E cytokine-induced death, ATP luminescence, 48 h; percent of positive-control rescue, neutral wells zero; protection from apoptosis, % (concentration not given with the values); 0.8% of 300,000 active; AID 435005, 2010;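 active = all replicates at 75% or more, or half of them and the mean; inconclusive = half reach 75% but not the mean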;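 also: 0% = cytokine-treated negative control wells and 100% = positive control rescue; higher means more ATP so stronger rescue from cytokine killing; wells of about 40 µL received 100 nL stock; the first replicate is given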
# ALR H2O2 inh: inhibitors of human ALR sulfhydryl oxidase, primary screen, biochemical, H2O2 detection, HRP-luminol luminescence, single point; inhibition, % (test concentration not listed); 3.8% of 290,000 active; FAD-linked sulfhydryl oxidase ALR (Homo sapiens), P55789; purified ALR, DTT oxidation;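 active = mean and each replicate at 75% or more; inconclusive = only one of the two met; inactive = neither met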;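 also: stock transfer was 7.5 nL into about 7.5 µL; 0% = neutral wells and 100% = wells with inactivated enzyme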
# Beta2AR agonist: beta2AR agonists driving receptor internalization, primary screen, cell-based, FAP fluorogen, flow cytometry. Am2.2-beta2AR cells; reference of the scale not given here. 0.43% of 340,000 active. Beta-2 adrenergic receptor (Homo sapiens), P07550. response, % (test concentration not listed);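 active = response above a set limit, near 3 SD of response in nonfluorescent compounds, cut at about 42% in these data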;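 also: stock transfer was 100 nL into about 11 µL; a reference agonist was the positive control; negative values mostly stem from fluorescent compounds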
# rRNA inh HTS: reduced GFP signal of wild-type E. coli, primary screen, bacterial rRNA inhibitor project, GFP/RFP fluorescence, OD600, single point; GFP signal change (wild-type ribosome), % (no concentration beside the values); E. coli WT GFP vs humanized-ribosome RFP mutants, 24 h; active compounds read low; DMSO median 0, no signal -100; AID 720706, 2013; 1.6% of 350,000 active;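 active = significant combined selectivity score with lowered wild-type GFP, culture density cut under 30%, mutant RFP and density less affected; inactive = any of these conditions unmet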; also: one replicate is shown; some compounds called inactive have numbers as strong as hits
# T cruzi repl: inhibitors of intracellular T. cruzi growth, primary screen, luminescence, NIH3T3 host cells | 1.4% of 300,000 active | inhibition, % (concentration not given with the values) | T. cruzi beta-gal in NIH3T3, 90 h;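 active = mean inhibition across valid replicates above about 55%, limit read from the data; inconclusive = mean below that limit but half or more replicates reach it; inactive = mean below it, under half of replicates reach it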;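 also: signal also drops with host cell toxicity which is not excluded here; 0% = plate median of DMSO wells and 100% = zero luminescence signal; higher percent means less beta-gal luminescence so fewer parasites; stock transfer was 50 nL into about 50 µL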
# LANA-H2A inh: blockers of LANA interaction with H2A/H2B – biochemical, FP readout, HTS, primary screen; Protein LANA1 (Human herpesvirus 8 type P (isolate GK18)), Q9QR71; cell-free LANA-H2A/H2B peptide, fluorescence polarization; inhibition, % (concentration not given with the values); 0.6% of 320,000 active; in the data active = inhibition mostly above about 10%, no sharp cut-off; inactive = mostly below about 6.7%;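 also: stock transfer was 7.5 nL into about 10 µL; 0% = median of vehicle wells and 100% = median of positive control wells; one replicate is shown; the record names a cut of 25% in any replicate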
# Target sequence (Q9QR71 whole entry, looked up): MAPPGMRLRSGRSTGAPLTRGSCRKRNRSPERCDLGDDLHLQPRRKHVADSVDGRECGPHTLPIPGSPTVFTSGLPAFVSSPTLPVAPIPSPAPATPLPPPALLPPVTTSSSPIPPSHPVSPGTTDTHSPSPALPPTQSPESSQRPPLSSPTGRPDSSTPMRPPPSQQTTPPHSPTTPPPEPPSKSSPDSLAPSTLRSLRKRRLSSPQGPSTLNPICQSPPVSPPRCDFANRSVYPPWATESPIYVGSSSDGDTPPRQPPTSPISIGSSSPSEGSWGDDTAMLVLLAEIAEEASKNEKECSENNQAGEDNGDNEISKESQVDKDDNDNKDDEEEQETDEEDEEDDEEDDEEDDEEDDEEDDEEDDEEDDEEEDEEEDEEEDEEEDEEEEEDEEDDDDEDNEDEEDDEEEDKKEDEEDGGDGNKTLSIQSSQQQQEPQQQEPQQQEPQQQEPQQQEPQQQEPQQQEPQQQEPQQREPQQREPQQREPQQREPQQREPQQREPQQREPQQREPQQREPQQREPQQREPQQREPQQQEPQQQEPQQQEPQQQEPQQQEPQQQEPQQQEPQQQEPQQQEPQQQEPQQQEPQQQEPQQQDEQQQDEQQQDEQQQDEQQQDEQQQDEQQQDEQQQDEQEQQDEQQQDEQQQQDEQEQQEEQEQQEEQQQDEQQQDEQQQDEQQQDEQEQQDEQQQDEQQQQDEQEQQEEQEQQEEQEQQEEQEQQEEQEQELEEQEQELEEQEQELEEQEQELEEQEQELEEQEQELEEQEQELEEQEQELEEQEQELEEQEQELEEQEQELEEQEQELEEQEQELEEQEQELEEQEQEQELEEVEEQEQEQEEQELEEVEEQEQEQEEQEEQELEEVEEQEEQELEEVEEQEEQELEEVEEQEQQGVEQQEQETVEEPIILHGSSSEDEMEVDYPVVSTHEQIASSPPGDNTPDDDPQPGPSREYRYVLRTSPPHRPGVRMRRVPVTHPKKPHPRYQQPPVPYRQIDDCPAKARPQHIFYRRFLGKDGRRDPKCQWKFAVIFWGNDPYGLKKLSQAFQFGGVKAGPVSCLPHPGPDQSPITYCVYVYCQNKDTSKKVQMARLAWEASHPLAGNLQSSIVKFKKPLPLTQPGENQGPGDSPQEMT
# rRNA inh HTS OD600: further read-out of rRNA inh HTS, marked with its call; OD600 change, %; measured here: OD600 growth;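 optical density of the mix in the first replicate; 0 = DMSO median and -100 = no signal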
# rRNA inh HTS RFP: further read-out of rRNA inh HTS, marked with its call; RFP signal change, %; measured here: RFP humanized mutant strains;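 first replicate; 0 = DMSO median and -100 = no signal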
# * = called active by the depositor; ? = inconclusive; · = not tested or not shown; & = joins results of further samples. This is a subset (hit frequency here may not be typical).
SMILES,A1 inh,Calb FLC,Beta cell apopt,ALR H2O2 inh,Beta2AR agonist,rRNA inh HTS,rRNA inh HTS OD600,rRNA inh HTS RFP,T cruzi repl,LANA-H2A inh
COc1ccc(OC)c(NC2=NCCS2)c1,1.0,-3,-4,-24,-8,15,9,0.4,-10,1.6
Cc1ccc(/C=C2/C(=O)NC(=O)N(Cc3ccc(F)cc3)C2=O)o1,-0.2,0,0,·,·,19,10,13,-31,-1.7
CC(=NCCCn1ccnc1)c1c(O)n(C)c(=O)n(C)c1=O,2.7,-19,-3,-5,-6,·,·,·,-9,-5.8
CN(C(=O)Cc1ccc2c(c1)OCO2)C1CCCN(Cc2ccccc2F)C1 (configuration not stated),2.0,4,-2,·,-2,0,-1,-5.2,5,2.6
Fc1ccc(CNCCc2c[nH]c3ccccc23)cc1,-2.0,-10,2,-4,-4,3,-6,-0.4,-8,-4.8
CCn1ccnc1CN1CCCC(C(=O)c2cccc(C(F)(F)F)c2)C1 (configuration not stated),0.0,-9,-11,-23,1,·,·,·,14,4.8
COc1cc(/C=C2\C(=O)NC(=O)N(c3ccccc3)C2=O)cc(OC)c1O,-0.4,-6,2,91*,-2,·,·,·,-12,7.3
COc1ccc(Cn2c(O)c(C=NCCCn3ccnc3)c(=O)[nH]c2=O)cc1,-0.6,2,-10,-16,-5,·,·,·,-9,-0.4
CC(=NCCCN1CCOCC1)c1c(O)n(-c2ccccc2C)c(=O)[nH]c1=O,1.5,9,·,-1,-3,·,·,·,-7,11
O=C1/C(=C\c2cc3c(cc2Br)OCO3)N2CCC1CC2,0.7,-3,-4,15,-3,·,·,·,2,4.0
Cc1cccc(N2C(=O)/C(=C/N3CCN(C(=O)c4ccco4)CC3)C(=O)NC2=S)c1,-1.7,-4,-5,8,-6,·,·,·,·,-2.2
CCOC(=O)[C@@H]1[C@H]2COc3ccc(Br)cc3[C@@H]2N2C(=O)N(c3cccc(C)c3)C(=O)[C@]12C,-0.1,0,-3,-9,-4,12,-1,-0.8,-13,1.3
CC(=O)N1CCN(CCN=Cc2c(O)n(-c3ccc(C)cc3)c(=S)[nH]c2=O)CC1,0.9,4,-4,0,4,26,23,4.4,-7,8.2
O=C(Cn1nc(-c2ccccc2)ccc1=O)N1CCC2(CC1)OCCO2,1.9,-6,5,-6,-3,5,12,-0.4,-2,3.5
CCOc1ccc(CNCCc2ccc3c(c2)OCO3)cc1,-0.3,-16,-7,·,-1,2,3,-2.0,67*,2.2
O=C(C1CC(c2ccccc2O)=NO1)N1CCC2(CC1)OCCO2 (configuration not stated),-0.7,?,-8,20,2,·,·,·,4,2.8
Cc1cc(OC(=O)c2ccco2)c2c3c(c(=O)oc2c1)CCCC3,0.3,?,·,58,2,·,·,·,-10,3.2
Cc1ccc(OCCOc2cccc(C=C3C(=O)NC(=O)NC3=O)c2)cc1,-7.1,0,-6,8,6,6,8,-6.0,-13,0.3
O=C(c1ccc2c(c1)OCO2)C1CCCN(Cc2ccccn2)C1 (configuration not stated),0.1,-20,-3,-7,-3,4,-1,1.3,-2,3.5
CC(=NCCCn1ccnc1)c1c(O)n(C2CCCCC2)c(=O)[nH]c1=O,0.2,0,0,0,1,8,8,2.3,5,0.6
COC(=O)C1=C(c2ccc(F)cc2OCc2ccccc2)C[C@@H]2CC[C@H]1N2C(=O)NC1Cc2ccccc2C1,1.1,·,13,-5,12,9,0,-2.1,·,5.0
O=C(O)COc1ccccc1,-0.2,·,3,-2,-2,0,-5,-0.4,·,1.7
O=C1NC(=O)C(=Cc2ccc(N3CCOCC3)cc2)C(=O)N1,0.7,6,·,46,7,15,13,4.9,8,0.1
C=CC[N+]1(C)CC[C@]23c4c5ccc(O)c4O[C@H]2C(=O)CC[C@@]3(O)[C@H]1C5 (some centres not stated),1.3,-8,-5,34,0,·,·,·,-12,2.3
C=CCn1c(=O)c(C=Nc2cccnc2Cl)c(O)n(CCCC)c1=O,0.0,-15,-9,-12,20,10,10,2.0,-10,-0.5

# Following part.
SMILES,A1 inh,Calb FLC,Beta cell apopt,ALR H2O2 inh,Beta2AR agonist,rRNA inh HTS,rRNA inh HTS OD600,rRNA inh HTS RFP,T cruzi repl,LANA-H2A inh
O=C(Cn1ncn2c(cc3cc(F)ccc32)c1=O)N1CCC2(CC1)OCCO2,0.8,-1,-1,-3,-3,8,17,0.2,-4,3.5
COc1cccc(N2C(=O)NC(=O)/C(=C/c3ccc4c(c3)Cc3ccccc3-4)C2=O)c1,0.3,-6,-1,-171,4,-10,-4,2.2,-17,1.2
CN1C(=O)C(=Cc2cccnc2)C(=O)N(C)C1=O,-0.3,2,-8,10,2,19,1,1.3,-11,-1.2
CCOC(=O)c1cncn1[C@@H](C)c1ccccc1,0.3,·,-2,-10,6,·,·,·,·,-2.0
O=C(COc1ccc(Cl)cc1)NCCc1cnc[nH]1,1.1,-6,-9,-12,-2,7,4,-5.5,28,6.0
COC12C(COC(N)=O)C3=C(C(=O)C(C)=C(N)C3=O)N1CC1C2N1C (configuration not stated),0.1,46,-3,-25,-1,·,·,·,58*,2.8
CC(=O)c1ccc(OCC(=O)N2CCCC(N(C)Cc3ccccc3)C2)cc1 (configuration not stated),0.5,-18,-1,5,-14,1,10,0.7,14,-0.5
CCC(C)n1c(O)c(C(c2ccccn2)c2c(O)n(C(C)CC)c(=S)[nH]c2=O)c(=O)[nH]c1=S (configuration not stated),-0.6,-2,1,1,-2,15&16,11&10,4.7&7.8,-4,4.5
Oc1ccc2c3c1O[C@H]1c4[nH]c5ccccc5c4C[C@@]4(O)[C@@H](C2)N(CC2CC2)CC[C@]314,-0.8,·,-1,19,10,·,·,·,·,-2.9
O=C(N/N=C/c1c(O)n(Cc2ccccc2)c(=O)[nH]c1=O)c1ccncc1,-0.1,3,-1,3,24,6,-4,51,3,1.7
c1ccc(C[n+]2ccccc2)cc1,0.2,9,5,-5,1,15,20,1.7,-11,4.0
CC(C)C/C(=N/O)c1c[nH]c2ccccc12,0.5,-11,-10,32,-7,·,·,·,-5,-0.7
Cc1ccc(C(=O)O)cc1N=Nc1c(O)[nH]c(=O)[nH]c1=O,-0.1,3,3,-2,4,15,3,-1.1,-5,1.5
CC(C)(C)C(=O)Cn1c(NCCCl)nc2ccccc21,-0.9,2,-2,?,-7,5,2,3.5,-5,0.6
CCCCn1c(NC(=O)c2ccc(Br)o2)c(C(=O)OCC)c2nc3ccccc3nc21,0.7,·,6,35,-70,-3,-6,-1.1,15,-4.4
O=C(c1ccc(Cl)cc1)C12CN3CN(CN(C3)C1)C2,0.0,-4,3,-3,8,·,·,·,-4,-2.7
C[C@]12CCC3[C@@H](CCC4=CC(=O)CC[C@@]43C=O)C1CCC2=O (some centres not stated),0.0,2,3,-84,0,4,-1,1.8,-2,-0.1
CN(C)C(Cc1ccccc1)C(=O)c1ccccc1 (configuration not stated),0.0,-2,6,1,6,2,-3,-4.5,0,-7.8
COc1ccc(CNC(=O)CCC(=O)N2C[C@H]3C[C@H](C2)c2cccc(=O)n2C3)cc1OC,1.0,7,-2,·,1,·,·,·,?,-2.2
COc1ccccc1-n1c(Cc2ccccc2)nc2ccccc2c1=O,0.2,29,-6,-2,-17,-22*,-14*,-8.1*,7,-0.6
O=C(c1ccc2c3c(cccc13)CC2)C1CCCN(Cc2ncc[nH]2)C1 (configuration not stated),0.9,-32,1,-29,-5,-23,-37,37,16,-3.8
COc1ccc(C2(c3cccc(O)c3OC)CCN(C(C)=O)CC2)cc1O,-0.1,2,0,?,-4,-5,-3,3.6,-10,0.6
CCn1c(=O)cc(SCC(=O)N2CCC3(CC2)OCCO3)c2ccccc21,0.9,1,-1,-4,-2,·,·,·,10,0.6
Cn1c2ccccc2c2c(C(=O)N3CCC4(CC3)OCCO4)cn(C3CCCCC3)c(=O)c21,0.8,-1,-3,-3,-1,·,·,·,2,0.7
O=C(O)Cn1cc(C(=O)c2ccccc2F)c2ccccc21,-1.1,24,-8,-4,0,-7,0,-2.0,-6,-1.7

# Next entries
SMILES,A1 inh,Calb FLC,Beta cell apopt,ALR H2O2 inh,Beta2AR agonist,rRNA inh HTS,rRNA inh HTS OD600,rRNA inh HTS RFP,T cruzi repl,LANA-H2A inh
COc1ccc(C(=O)C2CCCN(Cc3ccccn3)C2)c(OC)c1 (configuration not stated),0.1,-36,-5,·,3,3,0,2.7,3,0.5
O=C(CSC1c2ccccc2-c2ccccc21)N/N=C/c1ccccc1O,-1.7,19,87*,98*,-14,·,·,·,60*,-5.4
COc1ccc(C2=NCc3nnc(C)n3-c3ccc(Cl)cc32)cc1Cl,0.2,0,0,-10,-15,·,·,·,7,-3.2
COc1ccc(OCC(=O)N2CCN(C3CCC(c4ccccc4)CC3)CC2)cc1 (configuration not stated),0.0,-25,-8,-7,1,-20,-34,33,29,1.1
CC(C)(C)c1nc(NCc2ccc3c(c2)OCO3)c2nnn(Cc3ccccc3Cl)c2n1,0.4,3,-10,·,-7,·,·,·,·,5.1
CC(=NCCN1CCOCC1)c1c(O)n(C2CCCCC2)c(=O)[nH]c1=O,0.4,-1,-2,4,-11,·,·,·,?,2.6
COC(=O)C1=C(c2ccc(C(C)=O)cc2)C[C@@H]2CC[C@H]1N2C(=O)N1CCOCC1,-0.5,·,1,-5,7,7,5,-5.7,·,2.0
C/C=C(\C)C(=O)N[C@@H](c1ccccc1)[C@@H](O)C(=O)O[C@H]1C[C@@]2(O)[C@@H](OC(=O)c3ccccc3)C3[C@](C)(C(=O)[C@H](OC(C)=O)C(=C1C)C2(C)C)[C@@H](O)C[C@H]1OC[C@@]31OC(C)=O (some centres not stated),0.5,2,13,·,·,·,·,·,52,1.8
Cn1c(O)c(/C=N/NC(=O)c2ccncc2)c(=O)n(C)c1=S,-1.0,-2,-3,10,-2,8,16,1.4,-27,15
Cc1ccc(-n2nc(C)c3c2NC(=O)CSC3c2ccc3c(c2)OCO3)cc1 (configuration not stated),0.1,-3,-3,-4,8,·,·,·,6,2.9
O=C(Nc1cccc(C(F)(F)F)c1)c1cccn(Cc2ccc3c(c2)OC(F)(F)O3)c1=O,0.6,3,-6,-2,8,·,·,·,25,4.1
CN(C)c1ccc(NC(=O)CN2C(=O)CN=C(c3ccccc3)c3ccccc32)cc1,0.7,-8,6,99*,3,·,·,·,13,1.8
O=C1NC(=O)N(c2ccc3c(c2)OCO3)C(=O)/C1=C\c1ccc(N2CCCCC2)o1,0.0,8,-1,4,-56,26,16,7.7,-34,-28
